High-throughput results: PubChem, National Center for Advancing Translational Sciences (NCATS)
VACV Venus inh: vaccinia inhibition (Venus reporter); 330,000 compounds, 0.46% hits; Vaccinia virus Venus reporter expression, fluorescence; Potency, µM (highest dose often 36.5 µM), for inactives: at the top dose activity change, negative = inhibition, hits mostly inhibitors; active means well fitted inhibition curve with a large enough effect; inconclusive means small, poorly fitted or top-dose-only effect; inactive means no such curve, though single readings can be large or run the other way; tested in A549 cells; further: nearly all actives have a fitted effect of over 30% in size; inactives centre near -10
VACV mCherry inh: vaccinia inhibition (mCherry reporter); AID 720579; Potency, µM (highest dose often 36.5 µM), for the others: at the highest dose activity change, negative = inhibition, usual class: inhibitors; Vaccinia virus mCherry reporter infection, fluorescence; about a quarter of the inactives have no number; 310,000 compounds, 0.63% hits; active = well fitted inhibition curve with a large enough effect; inconclusive = small, poorly fitted or top-dose-only effect; inactive = no such curve, though single readings can be large or run the other way; tested in A549 cells; further: nearly all actives have a fitted effect of over 35% in size; inactives centre near -10
An asterisk follows results filed as active; [ ] = another dose, or the depositor's remark. On the % scale 0 is the no-effect control and ±100 the full control effect; potency means the concentration at half of the fitted maximal effect. Hits appear at their usual frequency. About 0.82% of those tested had a hit in this group.

CCc1ccc(S(=O)(=O)c2nnn3c2nc(NC2CCCCCC2)c2sccc23)cc1 was read as VACV Venus inh -22% and VACV mCherry inh -18%.
`O=C(Nc1cccc(-n2cccn2)c1)C1CCCN(Cc2cccc(F)c2F)C1` (centres undefined) gave VACV Venus inh -28% and VACV mCherry inh -15%.
CCNC(=O)Cc1ccc(NC(=O)N2CCCCc3ccccc32)cc1 was read as VACV Venus inh 10% and VACV mCherry inh -1%.
`FC(F)(F)c1cccc(NC(=S)N2CCCCCC2)c1` gave VACV Venus inh -8% and VACV mCherry inh inactive.
Screening O=C(CCc1ccc(S(=O)(=O)NCc2ccccc2)cc1)NCc1ccco1 returned VACV Venus inh -30% and VACV mCherry inh inconclusive.
`CN(C)C(=O)c1ccc(=O)n(Cc2ccc(Cl)cc2Cl)c1` gave VACV Venus inh -15% and VACV mCherry inh -13%.
Screening CC(C)NC(=O)Nc1ccc2c(c1)C(=O)N([C@H](C)CO)C[C@H](C)[C@@H](CN(C)S(=O)(=O)c1ccccc1)O2 returned VACV Venus inh -7% and VACV mCherry inh inactive.
CC1=C(C#N)C(c2ccccc2O)C(C#N)=C(C)N1 was read as VACV Venus inh -12% and VACV mCherry inh -8%.
For COC(=O)c1ccc(NC(=O)CC2C(=O)N(c3cccc(OC)c3)C(=O)N2Cc2cccs2)cc1 (centres undefined) the results were VACV Venus inh -4% and VACV mCherry inh -4%.
`C=CC[C@@H](CC(=O)N(CCO)Cc1ccccc1)C(=O)NCCOC(=O)[C@@H](CC=C)Cc1ccc(F)cc1` gave VACV Venus inh -19% and VACV mCherry inh inconclusive.
`N#Cc1c(C(F)(F)F)cc(-c2cccs2)nc1SCC(=O)Nc1cccc(Cl)c1` gave VACV Venus inh -20% and VACV mCherry inh -18%.
Screening Cn1ccnc1SCC(=O)Nc1cccc(C(F)(F)F)c1 returned VACV Venus inh 0% and VACV mCherry inh -3%.
For O=C(C1CCCCN1S(=O)(=O)c1ccccc1[N+](=O)[O-])N1CCOCC1 (centres undefined) the results were VACV Venus inh 4% and VACV mCherry inh 4%.
Cc1cccc(NC(=O)C2CCCN(S(=O)(=O)c3cccc4nonc34)C2)c1C (centres undefined) was read as VACV Venus inh -12%[7.34 µM] and VACV mCherry inh -13%[7.34 µM].
CCOc1ccc(-c2cn3c(n2)sc2cc(C(=O)NC4CCCc5ccccc54)ccc23)cc1 (centres undefined) was read as VACV Venus inh -17% and VACV mCherry inh -18%.
COc1ccc([C@H]2C[C@@H](n3cc(-c4ccc(F)cc4)nn3)[C@H](O)CN2C(=O)C2CCCCC2)cc1 was read as VACV Venus inh -15% and VACV mCherry inh -5%.
Screening COc1cccc(C(=O)N2CCN(C(=O)c3cccc4ccccc34)CC2)c1OC returned VACV Venus inh 0%.
Screening Cc1nc2ccc(NC(=O)N3CCN(c4ccccn4)CC3)cc2s1 returned VACV Venus inh -10% and VACV mCherry inh -22%.
O=C(c1cccc(S(=O)(=O)Nc2cccc(C(F)(F)F)c2)c1)N1CCOCC1 was read as VACV Venus inh -4% and VACV mCherry inh -19%.
`O=C(c1cccn2c(=O)c3cc(Br)ccc3nc12)N1CCN(c2ccccn2)CC1` gave VACV Venus inh -7% and VACV mCherry inh -6%.
`Cc1ccc(CNC(=O)CCS(=O)(=O)c2ccc(Cl)cc2)cc1` gave VACV Venus inh -7% and VACV mCherry inh -16%.
For COC(=O)c1[nH]c2ccc(Br)cc2c1NC(=O)C(C)N1CCN(C2CCCCC2)CC1 (centres undefined) the results were VACV Venus inh inconclusive.
For CC1=CC(C)[C@H](/C=N/n2c(=O)[nH]c3c([nH]c4ccc(Br)cc43)c2=O)C(C)C1 (some centres undefined) the results were VACV Venus inh 3% and VACV mCherry inh inactive.
Screening CN1CCN(CCNC(=O)c2cnn(-c3cccc(Cl)c3)c2C2CCN(C(=O)OC(C)(C)C)CC2)CC1 returned VACV Venus inh -19% and VACV mCherry inh -23%.
Screening C[C@@H]1COc2cccc(N3CCN(C)CC3)c2S(=O)(=O)N1 returned VACV Venus inh -12% and VACV mCherry inh 12%.
For C=C(C)CN(CC)C(=O)CN1C(=O)NC2(CCc3ccccc32)C1=O (centres undefined) the results were VACV Venus inh -24% and VACV mCherry inh inactive.
Cc1cccc(NC(=O)c2cc(-c3ccc(C)s3)nc3ccccc23)n1 was read as VACV Venus inh -11% and VACV mCherry inh -25%.
Screening CC1(c2nnc(-c3ccc(F)cc3)o2)CC(c2ccc(F)cc2)=NO1 (centres undefined) returned VACV Venus inh -15% and VACV mCherry inh inactive.
For O=S(=O)(NCc1ccc2c(c1)OCO2)c1ccc2c(c1)oc1ccccc12 the results were VACV Venus inh -14% and VACV mCherry inh -15%.
For COc1ccc(NC(=O)CN(C)C(=O)c2ccc3ccccc3n2)cc1 the results were VACV Venus inh -8% and VACV mCherry inh -19%.
For CCC1CCCCN1Cc1c(O)ccc2c(=O)c(Oc3ccccc3Cl)c(C(F)(F)F)oc12 (centres undefined) the results were VACV Venus inh inconclusive and VACV mCherry inh inconclusive.
Screening COc1ccc(-c2csc(C(O)c3cccc(OC)c3)n2)cc1 (centres undefined) returned VACV Venus inh -14% and VACV mCherry inh 7%.
For O=C(OCc1ccccc1)C1CCN(S(=O)(=O)c2cccs2)CC1 the results were VACV Venus inh 3% and VACV mCherry inh inactive.
Screening CCN1CCN(c2nc(Nc3ccccc3)nc(N)c2[N+](=O)[O-])CC1 returned VACV Venus inh -5% and VACV mCherry inh inactive.
For Cc1ccc(S(=O)(=O)C(CNC(=O)COc2ccc(Cl)cc2)c2ccco2)cc1 (centres undefined) the results were VACV Venus inh -21% and VACV mCherry inh -1%.
COc1cccc(CNC(=O)[C@@H](C)N2C(=O)N3CCc4c([nH]c5ccc(OC)cc45)C3(C)C2=O)c1 (some centres undefined) was read as VACV Venus inh -9% and VACV mCherry inh -10%.
For CCN(CC)CCN(C(=O)c1ccc2c(c1)CCCC2)c1nc2c(C)cccc2s1 the results were VACV Venus inh -4% and VACV mCherry inh -22%.
`CC(=O)N1CCc2cc(Br)cc(S(=O)(=O)N3CCC(C(=O)Nc4cccc(C)c4C)CC3)c21` gave VACV Venus inh -12% and VACV mCherry inh -17%.
`CCC(CO)Oc1cc(NCc2ccccc2)c2ncn(C(C)C)c2c1` (centres undefined) gave VACV Venus inh -16% and VACV mCherry inh inconclusive.
`Cc1cc(C)cc(NC(=O)CCn2cnc3cc(C)c(C)cc32)c1` gave VACV Venus inh -5% and VACV mCherry inh 3%.

The final three entries of the part before are carried over, then new ones follow.
`CC(=O)N1CCc2cc(Br)cc(S(=O)(=O)N3CCC(C(=O)Nc4cccc(C)c4C)CC3)c21` gave VACV Venus inh -12% and VACV mCherry inh -17%.
`CCC(CO)Oc1cc(NCc2ccccc2)c2ncn(C(C)C)c2c1` (centres undefined) gave VACV Venus inh -16% and VACV mCherry inh inconclusive.
`Cc1cc(C)cc(NC(=O)CCn2cnc3cc(C)c(C)cc32)c1` gave VACV Venus inh -5% and VACV mCherry inh 3%.
Screening COc1ccc(CCN2CC(C(=O)N(C)Cc3cccnc3)CC2=O)cc1OC (centres undefined) returned VACV Venus inh -9% and VACV mCherry inh inactive.
Screening CC(c1ccccc1)n1cc(C(=O)NCC2CCCO2)nn1 (centres undefined) returned VACV Venus inh -13% and VACV mCherry inh inactive.
`Cc1cccc(OCC(=O)Nc2ccc(N3CCN(C(=O)c4ccco4)CC3)cc2)c1C` gave VACV Venus inh -17% and VACV mCherry inh inactive.
`CCCN1C(=O)c2ccc(C(=O)NC3=NCCS3)cc2C1=O` gave VACV Venus inh -8% and VACV mCherry inh -14%.
`CCCCc1c(O)nc2sccn2c1=O` gave VACV Venus inh -1% and VACV mCherry inh inactive.
`CCCCOc1ccccc1C1CC(=O)Nc2cc(OC)c(OC)cc21` (centres undefined) gave VACV Venus inh 4% and VACV mCherry inh 7%.
Screening COCc1ccc(C(=O)N(C)CC2CCCN(CCc3ccccc3F)C2)o1 (centres undefined) returned VACV Venus inh -14% and VACV mCherry inh -9%.
COc1ccc(/C=C/c2nc(C#N)c(NCc3ccc(F)cc3)o2)cc1OC was read as VACV Venus inh -15% and VACV mCherry inh -16%.
`N#CC1=C(N)Oc2ccc3ccc(O)cc3c2C1c1cccnc1` (centres undefined) gave VACV Venus inh inconclusive and VACV mCherry inh inconclusive.
Screening COC(=O)c1ccc(NC(=O)C(=O)NCCc2csc(-c3ccc(F)cc3)n2)cc1 returned VACV Venus inh -9% and VACV mCherry inh -14%.
For Cc1ccc2oc(=S)n(C)c2c1 the results were VACV Venus inh -14% and VACV mCherry inh inactive.
`COc1cc2c(cc1NC(=O)COC(=O)C(CCSC)NC(=O)c1ccccc1Cl)oc1ccccc12` (centres undefined) gave VACV Venus inh -16% and VACV mCherry inh -18%.
For O=C(C[n+]1cc[nH]c1)c1ccc(Cl)cc1 the results were VACV Venus inh -10% and VACV mCherry inh -13%.
Cc1ccc(C(=O)N2CCC(C)CC2)cc1C was read as VACV Venus inh -16% and VACV mCherry inh -21%.
Screening CCOC(=O)[C@]12Cc3cc(C)ccc3[C@H]1N(Cc1ccccc1)C(=O)c1cc(F)c(F)cc12 returned VACV Venus inh -17% and VACV mCherry inh -14%.
Screening COc1ccc(C#Cc2cnc3c(c2)C(=O)N([C@@H](C)CO)C[C@@H](C)[C@@H](CN(C)CC2CCOCC2)O3)cc1 returned VACV Venus inh -16% and VACV mCherry inh -17%.
`COc1ccc(-c2ccc3c(c2)S(=O)(=O)c2cccc(C(=O)NC[C@@H]4CCCO4)c2C3=O)cc1OC` gave VACV Venus inh -15% and VACV mCherry inh -11%.
`CC(=O)c1c(C)n(-c2cccc(Cl)c2)c2ccc(OC(=O)c3ccccc3)cc12` gave VACV Venus inh -4% and VACV mCherry inh -6%.
For CN(C(=O)c1cccc(NC(=O)Cc2ccc(NC(=O)C3CCN(C(=O)CCc4ccccc4)CC3)cc2)c1)C1CC1 the results were VACV Venus inh 0% and VACV mCherry inh inactive.
`O=C(NC12CC3CC(CC(C3)C1)C2)N1CCCC(CO)C1` (centres undefined) gave VACV Venus inh -8% and VACV mCherry inh -13%.
`COc1ccc(N(CC(=O)NCCSCc2ccc(C)cc2)S(=O)(=O)c2ccccc2)cc1` gave VACV Venus inh -18% and VACV mCherry inh -5%.
Screening COc1ccc(Br)cc1CSC(=N)N returned VACV Venus inh 0% and VACV mCherry inh -6%.
`C=CCNc1ncnc2c1ncn2[C@H]1CN(Cc2cc(OC)c(OC)c(OC)c2)C[C@@H](CO)O1` gave VACV Venus inh -4% and VACV mCherry inh -9%.
CCCCNc1c([N+](=O)[O-])ncn1C was read as VACV Venus inh -8% and VACV mCherry inh inactive.
Screening O=C(O)c1cccc(N/N=C/c2cc(Br)cc(Br)c2O)c1 returned VACV Venus inh -12% and VACV mCherry inh inactive.
CCN(CC(=O)Nc1ccc(NC(C)=O)cc1)C(=O)CCCOc1cccc(C)c1 was read as VACV Venus inh -8% and VACV mCherry inh -26%.
For C=C[C@H](CC(C)C)N(Cc1ccccc1)S(=O)(=O)N(Cc1ccccc1)[C@H](C=C)CC(C)C the results were VACV Venus inh -6% and VACV mCherry inh -13%.
Screening O=C(COc1ccc(Br)cc1)N(Cc1nnc(-c2ccccc2Cl)o1)C1CC1 returned VACV Venus inh -20% and VACV mCherry inh -10%.
CCOc1ccccc1CNC(=O)Cc1ccc(NC(=O)N2CCCCc3ccccc32)cc1 was read as VACV Venus inh -12% and VACV mCherry inh inactive.
For CC(C)CCC(C(=O)NC(C)c1ccccc1)C(=O)NC(C)c1ccccc1 (centres undefined) the results were VACV Venus inh -3% and VACV mCherry inh inactive.
CS(=O)(=O)N1CCN(C(=O)c2ccc(F)cc2)CC1 was read as VACV Venus inh -11% and VACV mCherry inh inactive.
Screening CSc1nc2sc3c(c2c(=O)[nH]1)CCC3 returned VACV Venus inh -12% and VACV mCherry inh -17%.
`CCCCc1cc(=O)oc2cc(C)cc(OC(C)C(=O)NCc3cccnc3)c12` (centres undefined) gave VACV Venus inh -6% and VACV mCherry inh -8%.
Screening O=[N+]([O-])c1ccc(Cl)c(S(=O)(=O)Nc2ccc(S(=O)(=O)N3CCOCC3)cc2)c1 returned VACV Venus inh -2% and VACV mCherry inh -8%.
C=CCCC(=O)N1CCCC(Cc2cccc(Cl)c2)(C(=O)OCC)C1 (centres undefined) was read as VACV Venus inh -5% and VACV mCherry inh inactive.
`COc1ccc(OCC(O)CNC(=O)c2sccc2Cl)cc1` (centres undefined) gave VACV Venus inh -4% and VACV mCherry inh inactive.
COc1ccc(CC(=O)NCc2ccc(F)cc2)cc1S(=O)(=O)N1CCOCC1 was read as VACV Venus inh -8% and VACV mCherry inh inactive.

A draw from above in order of formula weight, ascending:
CCCCNc1c([N+](=O)[O-])ncn1C was read as VACV Venus inh -8% and VACV mCherry inh inactive.
CS(=O)(=O)N1CCN(C(=O)c2ccc(F)cc2)CC1 was read as VACV Venus inh -11% and VACV mCherry inh inactive.
CCN(CC(=O)Nc1ccc(NC(C)=O)cc1)C(=O)CCCOc1cccc(C)c1 was read as VACV Venus inh -8% and VACV mCherry inh -26%.
CCOc1ccccc1CNC(=O)Cc1ccc(NC(=O)N2CCCCc3ccccc32)cc1 was read as VACV Venus inh -12% and VACV mCherry inh inactive.
For C=C[C@H](CC(C)C)N(Cc1ccccc1)S(=O)(=O)N(Cc1ccccc1)[C@H](C=C)CC(C)C the results were VACV Venus inh -6% and VACV mCherry inh -13%.
`COc1ccc(N(CC(=O)NCCSCc2ccc(C)cc2)S(=O)(=O)c2ccccc2)cc1` gave VACV Venus inh -18% and VACV mCherry inh -5%.
